# High-throughput results from PubChem BioAssay.
# AID504770 – growth inhibitors of E. coli YBA685 in a screen for V. cholerae RctB (chromosome II replication) inhibitors; z-score (no concentration beside the values); 130,000 tested, 0.27% active; E. coli YBA685 rctB-dependent plasmid, OD600 growth, 3 h; active compounds read low;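 active = z-score under -2 on both plates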;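 also: wells of about 30 µL received 100 nL stock; score is relative to mean and SD of the test wells; the first replicate is given; strong numbers were not always called active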
# Ba CapD inh – CapD enzyme inhibition. purified CapD enzyme, fluorescence intensity read-out; active compounds read low; some hits fall short of the stated cut. 140,000 tested, 0.23% active. AID 492967. z-score (test concentration not listed);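 active = z-score under -4 in either of two replicates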;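 also: stock transfer was 100 nL into about 40 µL; score is relative to mean and spread of the plate; one replicate is shown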
# * = called active by the depositor; nt = no result given.
# Values in the order – AID504770 | Ba CapD inh
CCS(=O)(=O)c1ccc(O)c(NC(=O)COc2ccc(Cl)c(C)c2)c1
    -0.8 | -0.115
Cc1onc(-c2c(Cl)cccc2Cl)c1C(=O)Oc1ccc(F)cc1Cl
    nt | -0.335
CC1CCN(Cc2cc(Cl)c3cccnc3c2O)CC1
    -0.4 | -0.315
O=C(CSc1cccc[n+]1[O-])Nc1ccc(F)c(F)c1
    -0.15 | 0.97
Cc1ccc(C(=O)CSc2nc(C(F)(F)F)cc(=O)n2-c2ccccc2)cc1
    -0.9 | -0.12
CC(C)(O)C#Cc1ccccn1
    0.25 | 0.32
Cc1ccc2oc(-c3cc(N=C/C=C/c4ccc5c(c4)OCO5)ccc3O)nc2c1
    -0.4 | nt
CC(=O)Nc1ccc(C(=O)N2CC(C)OC(C)C2)cc1 (stereo not drawn)
    -0.35 | nt
O=C(Nc1ccccc1)N(Cc1nnc2n1CCCCC2)c1ccc(I)cc1
    2.05 | -0.04
CCCc1cc(=O)[nH]c(SCC(=O)N2CCC(C)CC2)n1
    0.25 | nt
O=C(O)c1ccc(N2C(=O)C3C4C=CC(C4)C3C2=O)cc1 (stereo not drawn)
    -0.2 | -0.25
CCC(C)OC(=O)C1=C(C)NC(=O)NC1c1ccc(F)c(Br)c1 (stereo not drawn)
    1.45 | -1
CC(C)Cn1c(=O)c2ccccc2n2c(CCC(=O)O)nnc12
    -2.7 | 0.54
COCc1cc(Sc2c(Cl)cccc2Cl)nc(-c2ccccc2)n1
    nt | -0.145
Cc1cc(C(=O)O)c2cc(F)ccc2n1
    0.8 | 0.16
COCCOc1ccc(C(F)(F)F)cc1NCC(=O)NCc1ccc2c(c1)OCO2
    -0.65 | nt
Cn1c(=O)c2c3c(sc2n2c(SCC(=O)c4ccc(Br)cc4)nnc12)CCC3
    nt | 0.075
Cc1nn(-c2ccccc2)c2sc(C(=O)OCC(=O)Nc3ccccc3)cc12
    0.6 | nt
O=c1c2ccccc2nc2n1CCO2
    -0.2 | 1.62
CCOC(=O)CCc1ccc(OCc2c(C)c(C)c(C)c(C)c2C)cc1
    2.2 | 0.28
Cc1cc2c(cc1C)CSC(c1cc(Br)ccc1O)SC2
    nt | -0.035
Nn1c(SCC(=O)N2CCc3ccccc32)nncc1=O
    0.3 | nt
CCCc1nnc(SCC(=O)N2CCCC2)n1CCOC
    -0.45 | nt
Cn1c(SCc2ccc(C(C)(C)C)cc2)n[nH]c1=S
    nt | -1.08
CCOC(=O)CN1CC23C=CC(O2)C(C(=O)N2CCN(c4ccc(F)cc4)CC2)C3C1=O (stereo not drawn)
    -1.25 | -0.175
Cc1ccc(N2C(=O)/C(=C/c3ccc(-c4cc(Cl)ccc4Cl)o3)C=C2c2ccccc2)cc1[N+](=O)[O-]
    nt | -0.525
Cc1cccc(N(Cc2ccccc2)C(=O)COc2ccc(-c3nnco3)cc2)c1
    0 | nt
FC(F)(F)c1cccc(OCc2ccc(-c3ncns3)cc2)c1
    -0.55 | 0.765
CC(C)(CC(=O)O)CC(=O)NC1CCN(Cc2c(F)cccc2Cl)CC1
    1.65 | 1.03
COC(=O)/C=C1\Nc2ccccc2SC1=O
    -0.65 | -0.075

# As a working copy, some entries already given.
# Values in the order – AID504770 | Ba CapD inh
CC(C)(CC(=O)O)CC(=O)NC1CCN(Cc2c(F)cccc2Cl)CC1
    1.65 | 1.03
COC(=O)/C=C1\Nc2ccccc2SC1=O
    -0.65 | -0.075

# Continued:
# Values in the order – AID504770 | Ba CapD inh
COc1ccc2oc(C(=O)c3ccc(Cl)cc3)c(N)c2c1
    nt | -0.165
CCOC(=O)Cc1csc(-c2ccccc2F)n1
    0.15 | 0.87
CCOc1ccc(NC(=O)C2CCN(S(=O)(=O)c3cnc[nH]3)CC2)cc1
    -1 | 0.555
CCC12CN3CC(CC)(CN(C1)C3c1ccccc1)C2O (stereo not drawn)
    0.55 | -0.37
Cc1noc(C)c1COc1ccc(C(=O)OCC(N)=O)cc1
    -1.05 | nt
O=C(NCCc1ccncc1)c1cc(-c2ccccc2)nc2ccccc12
    nt | 10
COc1ccc(-c2noc(CCC(=O)O)n2)cc1
    -1.4 | -0.935
CC(=O)CN1C2=NCCN2c2ccccc21
    nt | -0.41
Cc1ccccc1NCC(=O)NN
    1.45 | 0.495
COc1ccc(CCNC(=O)CCCn2c(SCC(=O)c3ccccc3)nc3ccccc3c2=O)cc1OC
    nt | 0.01
O=C(c1ccccc1)N1CCCSc2ccccc21
    -0.3 | 0.625
O=C(NN1C(=O)c2ccccc2C1=O)C(O)c1ccccc1 (stereo not drawn)
    -0.9 | 0.01
O=C(Nc1ccc(S(=O)(=O)N2CCOCC2)cc1)c1oc(=O)c2ccccc2c1-c1ccccc1
    0 | -0.245
O=C(CSc1nc2ccccc2n1S(=O)(=O)c1ccc(Cl)cc1)NCCc1ccccc1
    -0.3 | -0.065
COc1ccc(Cl)cc1NCC(=O)N1CCc2ccccc2C1
    2 | -0.86
O=C(c1cccc(S(=O)(=O)NCc2ccccc2)c1)N1CCCC1
    -0.2 | -0.625
O=c1[nH]c(=O)n(CCO)c2nonc12
    0.2 | 0.255
CCC(C)NC(=O)CN1C(=O)C2C3C=CC(C3)C2C1=O (stereo not drawn)
    -1.05 | -0.225
CC1CN(c2nc(-c3cccs3)cc(C(F)(F)F)c2C#N)CC(C)O1 (stereo not drawn)
    -0.1 | 1.95
Cc1ccccc1NC(=O)CN1CCCC1
    -0.1 | nt
Cc1nnc(SCc2ccc(C(=O)N3CCOCC3)cc2)s1
    -0.3 | 0.155
O=C(OCC1CCCN1c1ccc([N+](=O)[O-])cc1)N1CCc2c([nH]c3ccccc23)C1 (stereo not drawn)
    nt | -1.23
CC(C)c1cc(=O)[nH]c(SCC(=O)O)n1
    -0.5 | nt
CC(C)N(C(=O)CSc1nnnn1Cc1ccccc1)C(C)C
    -0.4 | nt
COC(=O)c1ccc2nsnc2c1
    -1.15 | -0.72
O=C(CCCc1ccccc1)N1CCCCCCC1
    -0.35 | 0.865
CC1=CC(C)=NC2Nc3c(C)cc(C)cc3C(=N)C12 (stereo not drawn)
    0.05 | nt
O=C1c2ccccc2-c2onc3ccc(Oc4c(F)c(F)c(F)c(F)c4F)c1c23
    -2.25* | nt
CN(CCc1ccccn1)c1nc(-c2ccccc2F)nc2ccccc12
    nt | -1.03
Cc1nc2ccccc2c(=O)n1-c1cccc(NC(=O)c2ccc3c(c2)OCO3)c1
    1.25 | nt
CN1C(=S)SC(c2ccccc2)N(C)C1c1ccccc1 (stereo not drawn)
    -0.6 | -0.505
COc1ccc(-c2nnc(Nc3c(C)n(C)n(-c4ccccc4)c3=O)c3ccccc23)cc1
    nt | -0.775
CN(C)CCSc1nc(O)c(-c2ccccc2)c(=O)[nH]1
    0.4 | 0.56
Cc1ccc(/C=C(\C#N)c2cccs2)cc1
    -2 | 17.6
O=C(CSc1nncn1-c1ccc(C(F)(F)F)cc1)c1cc2ccccc2o1
    0.15 | 0.905
C/C(=C\c1ccccc1)C(=O)NCCCn1ccnc1
    -0.5 | 0.36
CCOC(=O)CSCCOc1ccc(C=C2C(=O)N(C)C(=O)N(C)C2=O)cc1OC
    nt | 0.23
COC(=O)CC(C(=O)Nc1ccc(C)cc1Br)N1CCN(C)CC1 (stereo not drawn)
    -0.25 | nt
Cn1c(-c2ccccc2Cl)nn(C2CC(=O)C3OCC2O3)c1=S (stereo not drawn)
    nt | -0.29
Nc1nc2sc3c(c2c(=O)s1)CCCC3
    -0.7 | nt
COCC(C)NC(=O)C1=CC(c2ccc(C)cc2)=NS(=O)(=O)N1C (stereo not drawn)
    2 | -0.285
CCN(CC)S(=O)(=O)c1ccc(C(=O)Nc2ccc3c(c2)OC(C)(C)O3)cc1
    -1.8 | 0.725
CC(=O)N/C(=C\c1cc(F)cc(F)c1)C(=O)O
    -0.7 | -0.41
O=C1CC(c2ccccc2)SC(c2ccccc2)C1 (stereo not drawn)
    -0.25 | 0.125
Cc1cc(C)c(Nc2ccc(Nc3ccc([N+](=O)[O-])cc3)c3c2C(=O)c2ccccc2C3=O)c(C)c1
    nt | 0.425
CC(C)(C)c1ccn[nH]1
    -0.15 | -0.04
Cc1cc(C(=O)CSc2nc3ccccc3c(=O)n2CCO)c(C)n1C(C)C
    -0.3 | nt
CCOC(=O)c1c(NC(=O)CCN2C(=O)/C(=C/c3ccc(OC)cc3)SC2=S)sc2c1CCCC2
    nt | 0.56
Cc1oc(-c2ccccc2)cc1C(=O)O
    nt | 0.385
CSc1nc2ccc(NC(=O)CNC(=O)c3cccs3)cc2s1
    0.75 | nt
O=C(NC1CC(=O)N(c2ccc3c(c2)OCCO3)C1)c1ccc2ccccc2c1 (stereo not drawn)
    -0.9 | nt
Cc1nc2cc(C(=O)NCc3cccnc3)ccc2n1-c1ccc(OCc2ccccc2)cc1
    nt | 0.245
COc1ccc(C(=O)N2CCN(C(=O)CSCC(=O)O)CC2)cc1F
    nt | 0.735
COC(=O)C(C)Oc1nc(C)c(Br)c(OC)n1 (stereo not drawn)
    1.75 | -0.075
Cc1ccc(Cn2c(=O)cc(C(=O)NCc3cccs3)c3ccccc32)cc1
    0.6 | -0.25
CCSc1nnc(COc2ccccc2)n1CC
    -0.85 | nt
OCCN(c1ccccc1)c1ncnc2onc(-c3ccc(F)cc3)c12
    0.2 | -0.135
Brc1ccc(-c2ccnc3ncnn23)cc1
    0.1 | 16.7
Cc1cc(C(=O)COn2nnc3ccc(Cl)cc32)c(C)n1Cc1cccs1
    -0.45 | nt
OC1CSc2sc(=S)sc2SC1
    nt | -0.31

# Next part:
# Values in the order – AID504770 | Ba CapD inh
CCC(C)NC(=O)c1ccccc1NC(=O)Nc1ccccc1 (stereo not drawn)
    0 | 1.17
CSC(=NC#N)N1CCC(C(=O)c2ccccc2)CC1
    -0.45 | 0.135
Cc1noc(C)c1CNc1ccccc1
    0.9 | nt
O=C(O)c1cccc(-n2ncc(Cl)c(Cl)c2=O)c1
    1.25 | -0.955
CCOc1cc(C2C(C(=O)N3CCOCC3)=C(C)NC3=C2C(=O)CC(C)(C)C3)cc(Br)c1OCC (stereo not drawn)
    0.7 | 76.4
Cn1c(-c2cccnc2)n[nH]c1=S
    -0.35 | -0.15
O=C(CSCc1ccco1)NC1CCCC1
    -0.15 | 0.01
C=CCOc1ccc2c(c1)c(=O)cc(C(=O)O)n2CC
    nt | 16.4
CC1CCN(S(=O)(=O)Cc2ccccc2)CC1
    -1.6 | -0.27
CC(C)C(NC(=O)c1ccc2c(=O)n3c(nc2c1)CCC3)c1ccc2c(c1)OCCCO2 (stereo not drawn)
    -0.5 | nt
CS(=O)(=O)N1CCN(C(=O)CCCC(=O)O)CC1
    1.95 | -1.26
COC(=O)CSc1nnc2c(n1)[nH]c1ccccc12
    1.95 | nt
COC(C(=O)Nc1ccc2c(c1)OCCO2)c1ccccc1 (stereo not drawn)
    0.6 | nt
Cc1nc2c(o1)NC(N)=C(C#N)C2c1cn[nH]c1C (stereo not drawn)
    0.65 | -0.37
O=c1[nH]c(-c2ccc(Cl)cc2)nc2c1CSC2
    -0.75 | 0.19
CN1C2CCC1CC(N(CCc1c[nH]c3ccccc13)C(=O)c1ccc(Cl)cc1)C2 (stereo not drawn)
    nt | -0.075
N#CC(=S)CC(=O)c1ccc(Cl)cc1
    nt | -0.245
CN(C(=O)CSc1nc2ncccc2o1)c1ccccc1
    -0.1 | 3.37
CC1Cc2ccccc2N1S(=O)(=O)c1cccc(C(=O)N2CC(=O)Nc3ccccc32)c1 (stereo not drawn)
    0.65 | nt
Cc1cc(S(=O)(=O)NCc2ccc3c(c2)CCO3)c(C)s1
    1.75 | -0.185
Cc1noc(C)c1CSc1ncccc1C(=O)N(C)Cc1c(F)cccc1Cl
    2 | nt
O=C(Nc1ccc(Br)cc1)C(Cc1ccccc1)NS(=O)(=O)c1cccs1 (stereo not drawn)
    0.2 | 1.09
C/C(O)=C(\C#N)P(C)(=O)OC(C)C (stereo not drawn)
    1.45 | 0
CCCn1c(=O)n(-c2ccccc2)c(=O)c2c3c(sc21)CN(C(C)=O)CC3
    0.8 | 0.485
Cc1[nH]c2ccc(C(=O)OCC#N)cc2c1C
    0.1 | nt
O=c1[nH]nc(C(F)(F)F)c2nnn(Cc3ccccc3Cl)c12
    0.05 | 0.4
CN(C)c1ccc(C2N(C(=O)C(F)(F)F)CCN2S(=O)(=O)c2ccccc2)cc1 (stereo not drawn)
    0.4 | 0.315
CCOC(=O)c1sc(NC(=O)CC)c(C#N)c1C
    -0.75 | nt
O=C(CN1CCCCC1)Nc1ccccc1
    -1.1 | 0.035
CC(CN=CC1=C(O)CC(C)(C)CC1=O)N=CC1=C(O)CC(C)(C)CC1=O (stereo not drawn)
    0.8 | nt

# Of the compounds above, 5 have a furan ring, fused or not:
# Values in the order – AID504770 | Ba CapD inh
Cc1ccc(N2C(=O)/C(=C/c3ccc(-c4cc(Cl)ccc4Cl)o3)C=C2c2ccccc2)cc1[N+](=O)[O-]
    nt | -0.525
COc1ccc2oc(C(=O)c3ccc(Cl)cc3)c(N)c2c1
    nt | -0.165
O=C(CSc1nncn1-c1ccc(C(F)(F)F)cc1)c1cc2ccccc2o1
    0.15 | 0.905
Cc1oc(-c2ccccc2)cc1C(=O)O
    nt | 0.385
O=C(CSCc1ccco1)NC1CCCC1
    -0.15 | 0.01

# (further entries)
# Values in the order – AID504770 | Ba CapD inh
C=CCN(c1ccccc1)c1nc(C(=O)OCC)nc2ccccc12
    -0.6 | -0.645
O=c1[nH]c2ccc(NCc3ccc(OCc4ccc(Cl)cc4)cc3)cc2[nH]1
    -0.7 | -1.24
CCOc1cc(S(=O)(=O)NCCc2ccc(OC)c(OC)c2)c(OCC)cc1-n1cnnn1
    1.9 | nt
O=C(O)CCC(=O)Nc1ccccc1C(=O)NC1CC1
    -0.8 | nt
OCC1OC2OC3(CCCCC3)OC2C2OC3(CCCCC3)OC12 (stereo not drawn)
    nt | 0.47
CC(=O)c1c(CC(=O)O)[nH]n(-c2nc3ccccc3s2)c1=O
    1.9 | 1.64
